# Vaccinia mCherry: inhibitors of vaccinia virus infection (mCherry reporter signal); Vaccinia virus mCherry reporter infection, fluorescence; about a quarter of the inactives have no number; Potency, µM (series often up to 36.5 µM), for the others: at the top dose activity change, negative = inhibition, usual class: inhibitors; actives 0.63% (n = 310,000); AID 720579; active = well fitted inhibition curve with a large enough effect; inconclusive = small, poorly fitted or top-dose-only effect; inactive = no such curve, though single readings can be large or run the other way; tested in A549 cells; also: nearly all actives have a fitted effect of over 35% in size; inactives centre near -10
# Vaccinia Venus: inhibitors of vaccinia virus (Venus reporter); Potency, µM (titrated, usually from 36.5 µM), for inactives: at the highest dose activity change, negative = inhibition, most hits filed as inhibitors; actives 0.46% (n = 330,000); Vaccinia virus Venus reporter expression, fluorescence; active means well fitted inhibition curve with a large enough effect; inconclusive means small, poorly fitted or top-dose-only effect; inactive means no such curve, though single readings can be large or run the other way; tested in A549 cells; also: nearly all actives have a fitted effect of over 30% in size; inactives centre near -10
# * marks the source's active call; other numbers are inactive results; i = inactive; ? = inconclusive; . = no result given; [ ] = dose if it differs, or a comment. % is scaled to controls: 0 for no effect and ±100 for the full control effect; potency is read from the fitted curve at half-maximal effect.
SMILES,Vaccinia mCherry,Vaccinia Venus
O=C1OC(N2C(=O)CC[C@H]2C(=O)Nc2ccc(Br)cc2F)c2ccccc21 (some centres undefined),-7%,4%
Nc1nc(-c2ccc(Cl)cc2)c(N=Nc2ccc(S(=O)(=O)N3CCOCC3)cc2)s1,-14%,-5%
COc1cc(C(=O)OCCNC(=O)c2cccnc2)cc(OC)c1OC,-15%,-6%
COC(=O)CSc1nc(N2CCOCC2)c2c(c1C#N)CC(C)(C)N(C)C2,.,-29%
CN1CCN(c2ccc3nccnc3c2)CC1,i,-5%
O=c1[nH]c(C2CCN(S(=O)(=O)Cc3ccccc3)CC2)nc2c1nnn2Cc1ccccc1Cl,-17%,-23%
CCN(CC(=O)Nc1c(F)cccc1F)C(=O)c1ccc(C)c(S(=O)(=O)N2CCCCC2)c1,-1%,-11%
CCC(C)N=CC1=C(O)CC(c2ccccc2)CC1=O (centres undefined),-17%,-8%
COc1ccc(NS(=O)(=O)c2ccc(C(=O)N3CCCCCC3)cc2)cc1,-19%,-14%
Cc1ccc2cccc(OC(=O)N(C)c3ccccc3)c2n1,.,-9%
O=C(CS(=O)(=O)c1ccccc1)Nc1ccc(S(=O)(=O)Nc2ncccn2)cc1,-1%,-2%
CC(C)c1ccc(S(=O)(=O)NC2CCCC2)cc1,-20%,-16%
S=C1NCCN1CC1CCN(CCC23CC4CC(CC(C4)C2)C3)CC1,i,-6%
O=C(Cn1c(=O)n(Cc2ccco2)c(=O)c2c3c(sc21)CCCC3)Nc1ccccc1,-14%,-4%
CC(NC(=O)Cc1cccs1)c1ccncc1 (centres undefined),-6%,-5%
OC[C@H]1O[C@@H](n2cnc3cc(Cl)c(Cl)cc32)[C@H](O)[C@H]1O,i,-10%
CCCCNc1nc2c(S(=O)(=O)c3ccc(Cl)cc3)nnn2c2ccsc12,-19%,-18%
CC(C)Cn1c(=O)c2sccc2n2c(CCCC(=O)NCCc3ccc(Cl)cc3)nnc12,-9%,-6%
O=C(/C=C/c1ccc([N+](=O)[O-])cc1)N1CCN(c2ccccc2F)CC1,-6%,-5%
COc1ccc(N(C(=O)c2ccco2)C(C(=O)NC2CCCC2)c2ccncc2)cc1OC (centres undefined),-3%,-9%
COc1cc(C)c(NC(c2ccccc2)c2ccccc2)cc1OC,-6%,0%
COc1ccccc1CNC(=O)C1CCN(c2nnc(C)c3c(C)n(-c4ccccc4)nc23)CC1,-9%,-19%
CCOC(=O)[C@@H]1[C@H]2COc3ccc(Br)cc3[C@H]2N2C(=O)N(c3ccc(Cl)cc3)C(=O)[C@@]12C,-24%,-14%
COc1ccc(CN(C(C)=O)c2cccc(C)c2C)cc1,.,?
N#C/C(=C\c1ccc(N2CCOCC2)cc1)c1ccccc1,?,?
# Further records:
SMILES,Vaccinia mCherry,Vaccinia Venus
CCn1cc(Br)c(C(=O)Nc2ccccc2C(=O)OC)n1,-10%,-13%
COCCCNC(=S)NCCc1ccc(F)cc1,-20%,-11%
CCOC(=O)Nc1nc(-c2ccccc2)c(C(=O)c2ccccc2)s1,.,?
O=C1c2ccccc2C(=O)N1/N=C/c1ccc(O)c(O)c1O,-2%,12%
O=C(COC(=O)c1ccc([N+](=O)[O-])o1)Nc1ccc2c(c1)OCO2,-21%,-11%
C/C(=N\S(=O)(=O)c1ccc(C)cc1)N1CCCCC1,i,-4%
CC(=O)NC(C)Cc1cn(Cc2ccccc2)c2ccccc12 (centres undefined),-13%,-12%
Cc1nc2[nH]c(=S)[nH]c2cc1Br,.,-16%
CN(C(=O)c1cccc(NC(=O)Cc2cccc(NC(=O)C3CCN(C(=O)c4ccccc4)CC3)c2)c1)C1CCCC1,-24%,-4%
O=C(O)C1C2C=CC(C2)C1C(=O)N1CCN(CCO)CC1 (centres undefined),-13%,-5%
Oc1c(Cl)cc(Cl)cc1CNc1nc2ccccc2[nH]1,-9%,-19%
Cc1cccc(C)c1OCC(=O)Nc1ccncc1,-18%,-13%
Cc1ccc(C2C=C(c3ccc(Cl)cc3)Nc3nc(NC(=O)c4ccco4)nn32)cc1 (centres undefined),-17%,-5%
Cc1cc(C(=O)N/N=C\c2cc(C(C)(C)C)c(O)c(C(C)(C)C)c2)n[nH]1,?,4%
CC(C)NC(=O)C1(C)CN(S(C)(=O)=O)CC(=O)N1CCc1ccccc1F (centres undefined),-11%,-4%
CCSC1=NC2(CCN(C(=O)NC3CCCCC3)CC2)N=C1c1ccc(OC)cc1,i,-28%
Cc1ccc2c(c1)NC(=O)C(CC(=O)NCCCN1CCCCC1)O2 (centres undefined),-14%,-6%
O=C1NC2(CCCCC2)OC12CCCCC2,-11%,3%
O=C(Nn1c(O)c(C=C2N=c3ccccc3=N2)sc1=S)c1ccccc1,-7%,-26%
Cc1csc(SCC(=O)NC2CCS(=O)(=O)C2)n1 (centres undefined),i,0%
CCN(CC)C(=O)c1nc[nH]c1C(=O)N(CC)CC,-6%,-6%
CC1CCN(c2oc(-c3cccc4ccccc34)nc2C#N)CC1,-15%,-3%
CN(C)c1ccc(-c2nnn(Cc3ccccc3Br)n2)cc1,-14%,-3%
c1ccc(CNCc2ccc(CNCc3ccccc3)cc2)cc1,?,-3%
NC(=O)CC(NC(=O)Cc1cccc2ccccc12)c1ccc(N2CCN(c3ccccn3)CC2)c([N+](=O)[O-])c1 (centres undefined),-7%,-16%
# Going on with the list:
SMILES,Vaccinia mCherry,Vaccinia Venus
COC(=O)COc1cccc(NC(=O)COc2ccccc2)c1,.,-12%
Cc1ccc(CC2(OCCN(C)C)CCC(C(C)(C)C)CC2)cc1 (centres undefined),?,?
COc1ccc(-c2c(C)cc3oc(=O)cc(-c4ccccc4)c3c2C)cc1C=O,-15%,-4%
Cc1nc2c([nH]c3ccc(Br)cc32)s1,-13%,-7%
COc1ccccc1C(=O)OCCc1ccccc1,i,0%
Cc1nn(C)cc1/C=C/C(=O)c1ccccc1,i,-15%
C[C@H](O)[C@@H]1C(=O)N2CCc3c([nH]c4ccccc34)[C@@H]2C[C@@H]1N(C)Cc1ccc(Cl)cc1,-29%,-18%
Fc1ccccc1Cc1cn2cc(-c3ccc(Cl)cc3)nc2s1,-4%,-2%
COc1ccc2cnn(-c3ccc(OC(F)(F)F)cc3)c(=O)c2c1OC,i,4%
COc1cc(/C=C/C(=O)O)cc(S(=O)(=O)Nc2ccc3[nH]c(=O)[nH]c3c2)c1OC,-12%,-7%
CCOC(=O)N1CCc2c(sc(NCc3cccc(F)c3)c2C(=O)Nc2ccc(OC)cc2OC)C1,-5%[7.34 µM],-2%[7.34 µM]
Nc1ncnc2[nH]c(=S)[nH]c12,i,-17%
COc1cc(/C=C2/SC(=O)N(Cc3ccccc3)C2=O)ccc1OCc1ccncc1,.,-5%
CCN1C(=O)c2ccccc2S(=O)(=O)c2ccc(C(=O)NCc3ccc(OC)cc3)cc21,2%[7.34 µM],-2%[7.34 µM]
Cn1c(=O)c2cc3ccc(Cl)cc3nc2n(C)c1=O,-10%,-14%
COc1ccc(CN(C(=O)Nc2ccccc2)c2ccccn2)cc1OC,-7%,4%
O=C(NCC1CCCO1)c1ccc([N+](=O)[O-])o1 (centres undefined),?,?
O=C(COc1c(F)c(F)cc(F)c1F)NNC(=O)CC1CCS(=O)(=O)C1 (centres undefined),-12%,1%
CON1C(=O)CN(C(C)=O)C1c1ccc(Cl)cc1Cl (centres undefined),i,-13%
O=C(Nc1ccc2c(c1)CCC2)c1ccc(F)cc1,-26%,-19%
COc1ccc(-n2c(C)nc3c(cnn3-c3ccc(C)c(C)c3)c2=O)cc1,?,?
O=C(Nc1ccccc1N1CCCC1)c1ccc(N2CCCC2=O)cc1,i,-12%
COc1ccc(CNC(=O)Cn2c(=O)n3nc(-c4cccc(F)c4)nc3c3ccccc32)cc1OC,-3%,-11%
c1ccc2[nH]c(SCCN3CCOCC3)nc2c1,i,-13%
CC1OC(COCc2ccccc2)Cc2[nH][nH]c(=O)c21 (centres undefined),-7%,-2%

# Part of the list above in another layout:
mol	Vaccinia mCherry	Vaccinia Venus
O=C(Cn1c(=O)n(Cc2ccco2)c(=O)c2c3c(sc21)CCCC3)Nc1ccccc1	-14%	-4%
CC(NC(=O)Cc1cccs1)c1ccncc1 (centres undefined)	-6%	-5%
OC[C@H]1O[C@@H](n2cnc3cc(Cl)c(Cl)cc32)[C@H](O)[C@H]1O	i	-10%
CCCCNc1nc2c(S(=O)(=O)c3ccc(Cl)cc3)nnn2c2ccsc12	-19%	-18%
CC(C)Cn1c(=O)c2sccc2n2c(CCCC(=O)NCCc3ccc(Cl)cc3)nnc12	-9%	-6%
O=C(/C=C/c1ccc([N+](=O)[O-])cc1)N1CCN(c2ccccc2F)CC1	-6%	-5%
COc1ccc(N(C(=O)c2ccco2)C(C(=O)NC2CCCC2)c2ccncc2)cc1OC (centres undefined)	-3%	-9%

# (list continues)
SMILES,Vaccinia mCherry,Vaccinia Venus
COC(=O)c1sccc1-n1cccc1C(=O)C(=O)N1CCCCC1,-18%,-4%
Cc1ccccc1N1Cc2ccccc2C1=O,-18%,-10%
O=c1nc(-c2ccccc2)c2cc(Br)ccc2[nH]1,i,-14%
CCOC(=O)c1cccc(N2C(=O)C3C(C2=O)C2C=CC3C23CC3)c1 (centres undefined),.,?
CC(C)CN(C(=O)c1cc([N+](=O)[O-])cc([N+](=O)[O-])c1)C1CCS(=O)(=O)C1 (centres undefined),i,-16%
CC(C)(C)C1(O)CC(C(F)(F)F)=NN1C(=O)CCc1ccccc1 (centres undefined),-15%,-14%
COC(=O)c1c(OCc2ccc(F)cc2)cc(=O)n2c1CCN(Cc1ccc3cccnc3c1)CC2,-15%,5%
CSc1nsc(SC)c1C(=O)Nc1ccc(C(C)(C)C)cc1,i,-15%
CCOC(=O)c1ccc(NC(=O)Cn2cnc3sc(C(=O)OCC)c(C)c3c2=O)cc1,-12%,-17%
COC(=O)c1ccc(OC(=O)CCS(=O)(=O)c2ccc(C)cc2)cc1,-14%,-5%
COc1ccc(S(=O)(=O)Nc2ccc(F)c(Cl)c2)cc1OC,.,-18%
CC(=O)OCc1cc(=O)n2nc(C3CCCCC3)sc2n1,-5%,-2%
CCN1CCN(C(C(=O)NC2CCCC2)c2ccc(Cl)cc2)CC1 (centres undefined),i,-11%
CCCCn1nnc(NC(=S)NC(=O)c2ccc(-c3cccc(Cl)c3Cl)o2)n1,?,0.11µM*
O=C(C(Cc1ccc(Cl)cc1)NS(=O)(=O)c1ccccc1)N1CC[C@@]2(O)CCCC[C@H]2C1 (some centres undefined),.,-17%
O=C(COc1ccccc1Cl)c1ccc2c(c1)CCCC2,-21%,-7%
COCCN(C(=O)COC(=O)c1ccc(C=O)cc1)c1c(N)n(Cc2ccccc2)c(=O)[nH]c1=O,0%,-9%
Cc1ccc(NC(=O)C2=CC(c3ccc4c(c3)OCO4)=NS(=O)(=O)N2C)cc1,-3%,-5%
Cc1c(C(=O)NC2CCCc3ccccc32)cccc1[N+](=O)[O-] (centres undefined),-5%,-19%
O=C(CSc1ccc2nnc(-c3ccncc3)n2n1)NCC1CCCO1 (centres undefined),-13%,-11%
O=C(C1CCCN1S(=O)(=O)c1ccc(Cl)cc1)N1CCCCC1 (centres undefined),-14%,-9%
Cc1cccc(-c2ccc3c(c2)C2CC3CCN2C(=O)OCc2ccccc2)c1 (centres undefined),-25%,-4%
Cc1ccc(C(=O)NCC2(c3ccccc3)CCCC2)cc1,.,-25%
O=c1[nH]c(=O)c2nc3c4ccccc4c4ccccc4c3nc2[nH]1,-7%,-12%
COc1cc(C2NCCC(=O)C2(C)C)cc(OC)c1OC (centres undefined),i,-13%

# Reprinted from the part before: six entries, followed by the next part.
SMILES,Vaccinia mCherry,Vaccinia Venus
O=C(CSc1ccc2nnc(-c3ccncc3)n2n1)NCC1CCCO1 (centres undefined),-13%,-11%
O=C(C1CCCN1S(=O)(=O)c1ccc(Cl)cc1)N1CCCCC1 (centres undefined),-14%,-9%
Cc1cccc(-c2ccc3c(c2)C2CC3CCN2C(=O)OCc2ccccc2)c1 (centres undefined),-25%,-4%
Cc1ccc(C(=O)NCC2(c3ccccc3)CCCC2)cc1,.,-25%
O=c1[nH]c(=O)c2nc3c4ccccc4c4ccccc4c3nc2[nH]1,-7%,-12%
COc1cc(C2NCCC(=O)C2(C)C)cc(OC)c1OC (centres undefined),i,-13%
COc1ccc(NS(=O)(=O)c2cccc(C(=O)NNC(=O)c3ccc(NC(C)=O)cc3)c2)cc1,-15%,-2%
CCOc1ccc(-n2c(C)cc(C(=O)CCl)c2C)cc1,-30%,-9%
COC(=O)c1c(NC(=O)CSc2nnc(-c3ccco3)n2C)sc(C)c1C,-9%,?
COc1ccc(-c2nn(-c3ccccc3C)cc2CNC(C)Cn2cncn2)cc1F (centres undefined),-13%,-17%
CC1N(O)C(c2ccc(Cl)cc2Cl)N(O)C1(C)C (centres undefined),.,-8%
CN=CC1=C(O)c2ccccc2C1=O,i,-6%
CC#CCOC(=O)c1c(C)nc2sc3c(c2c1N)CC[C@@H](O)C3,?,3.5µM*
CC(C)=C1C2CCC1C1C(=O)N(c3nc(-c4ccccc4)c(C)s3)C(=O)C21 (centres undefined),-6%,-12%
CCC1Oc2ccc(C)cc2N(CC(=O)NCCCN2CCOCC2)C1=O (centres undefined),-8%,-3%
CCCCNC(=S)N1CCn2cccc2C1c1ccccc1 (centres undefined),-22%,1%
C=C(C)CN1C(=O)C2(OCCO2)c2ccccc21,i,-12%
Cc1cc(C)c(S(=O)(=O)Nc2cccc(-c3cn4ccccc4n3)c2)c(C)c1,-18%,0%
CCOc1ccc(-c2nonc2NC(=O)c2oc3cc(C)ccc3c2C)cc1,-10%,-11%
Cc1nonc1C(=O)N/N=C/c1ccc(O)cc1O,8.9µM*,?
Cc1cc(-c2csc(Nc3ccccn3)n2)ccc1F,0%,-20%
COc1ccc(S(=O)(=O)N2CCCCC2)cc1NC(=O)Cc1ccsc1,-12%,-28%

# Bioassay records from PubChem BioAssay.
